# VDR inh = vitamin D3 receptor (human) inhibition; VDR-SRC2-3 peptide fluorescence polarization, 2 h; Potency, µM, for inactives: max response, negative = inhibition, usual class: inhibitors; AID 504847; hit rate 0.93% among 400,000; active means well fitted inhibition curve with a large enough effect; inconclusive means small, poorly fitted or top-dose-only effect, or another doubt; inactive means no such curve, though single readings can be large or run the other way; further: series mostly up to about 120 µM
# Target sequence (P11473 whole entry, looked up): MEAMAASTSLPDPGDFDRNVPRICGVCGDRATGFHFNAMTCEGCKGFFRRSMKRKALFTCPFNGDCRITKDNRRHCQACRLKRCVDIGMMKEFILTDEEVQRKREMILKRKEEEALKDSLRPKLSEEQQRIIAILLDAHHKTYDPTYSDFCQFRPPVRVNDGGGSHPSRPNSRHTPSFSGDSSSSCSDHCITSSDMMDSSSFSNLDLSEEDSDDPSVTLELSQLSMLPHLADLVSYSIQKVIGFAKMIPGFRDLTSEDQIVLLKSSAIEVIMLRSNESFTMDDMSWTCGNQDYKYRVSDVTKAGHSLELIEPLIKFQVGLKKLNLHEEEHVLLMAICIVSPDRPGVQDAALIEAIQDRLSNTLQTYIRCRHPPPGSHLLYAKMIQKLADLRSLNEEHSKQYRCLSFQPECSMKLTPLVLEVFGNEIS
#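 Signal is fluorescence polarization, reporting how far test compounds block the interaction of VDR with the SRC2-3 coregulator peptide after a 2 h room-temperature incubation.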
# An asterisk follows results filed as active; ? = inconclusive; & = joins results of further samples. On the % scale 0 is the no-effect control and ±100 the full control effect; potency means the concentration at half of the fitted maximal effect. These rows are one share of the data (hit frequency here may not be typical).
SMILES | VDR inh
Cc1nnn(C23C[C@@H]4C[C@@H](CC(C(=O)N5CCN(c6ccccc6)CC5)(C4)C2)C3)n1 | -5.4%
CCc1ccc(NC(=O)c2cc3ccccn3n2)cc1 | 1.2%
O=C(NCCc1ccccc1Cl)C1CCC(=O)N(CC2CCCCC2)C1 (stereo not drawn) | -17.6%
CCOC(=O)C1CCCN(C(=O)c2ccc(Cl)c(S(=O)(=O)N3CCCCCC3)c2)C1 (stereo not drawn) | 9.9%
FC(F)(F)c1cccc(Cn2cnc(NC(=S)NCCc3ccccc3)n2)c1 | -17.5%
O=C(/C=C\c1ccccc1OC(=O)c1ccccc1F)c1cc2ccccc2o1 | 14.1µM*
C[C@]12CCC(=O)C=C1CCC1C2C(O)C[C@]2(C)C1CC[C@]2(O)C(=O)COC(=O)CCC(=O)O (stereo partly drawn) | 4.4%
Cc1cc(OC(C)C(=O)NCc2ccccn2)c2c(C)c(C)c(=O)oc2c1 (stereo not drawn) | -3.7%
CN1[C@@H]2CC[C@H]1CC(OC(c1ccccc1)c1ccccc1)C2 (stereo partly drawn) | -9.5%&5.0%
CSC1=NCCN1C(=O)COc1ccc2ccccc2c1 | -13.1%
COCCNC(=O)CS(=O)(=O)Cc1nc(-c2ccc(C)cc2)oc1C | 3.1%
COC(=O)c1cccc(NC(=O)CCCOc2ccccc2)c1 | 17.8%
CN(C(=O)CCCN1C(=O)c2ccccc2C1=O)C1CCCCC1 | 4.7%
CC1Cc2ccccc2N1S(=O)(=O)c1nnc(NC(=O)c2ccccc2Br)s1 (stereo not drawn) | 8.8%
O=C1N=C(N2CCOCC2)S/C1=C\c1ccncc1 | -17.6%
CN(C)CCNc1oc(/C=C/c2ccccc2)nc1C#N | 2.1%
Cc1cc(C)c(S(=O)(=O)c2ccc(Cl)cc2)c(=O)[nH]1 | -5.9%
CC[C@]12c3[nH]c4cc(CCC(=O)N(C)C)ccc4c3CCN1C(=O)[C@@H](CC(=O)NCc1ccc(OC)c(OC)c1)C[C@@H]2C(=O)N1CCN(C(=O)C2CC2)CC1 | 10.5%
COc1ccc(NC(=O)CCCC(=O)OCC(F)(F)C(F)F)cc1 | 16.4%
Cc1cc(C(=O)COC(=O)c2cc(O)c3ccccc3c2O)c(C)n1CC1CCCO1 (stereo not drawn) | 70.8µM*
O=C1c2ccccc2-c2onc3ccc(NCCCn4ccnc4)c1c23 | -25.2%
O=C(CCCc1ccccc1)Nc1cccnc1 | 5.1%
CCOc1ccc2nc(N3CCC(C(=O)Nc4nnc(CC)s4)CC3)sc2c1 | -23.4%
COc1ccc(C(=O)N2CCN(C)C(=O)[C@@H]2C)cc1OC1CCN(C(C)=O)CC1 | -3.5%
COc1ccc(Br)cc1C(=O)Nc1ccccc1N1CCCC1 | 0.4%
CC(=O)c1ccccc1OCC(=O)Nc1cccc(S(=O)(=O)N2CCCC2)c1 | -9.3%
COCCN(C(=O)C1CC1)c1nnc(-c2ccc(C)cc2)s1 | -1.9%
O=C(NC1CCCCCC1)c1cccnc1Sc1ccc(Cl)cc1 | -5.6%
Cc1ccc(C)c(NC(=O)CN(C)C(=O)c2ccccc2OCc2ccccc2Cl)c1 | 2.1%
Cc1nn(C(=O)CCCn2cc([N+](=O)[O-])cn2)c(C)c1Cl | -7.9%
Cc1ccc(C(C(=O)NC2CCCCC2)N(CC2CCCO2)C(=O)CNC(=O)c2cccs2)cc1 (stereo not drawn) | 6.0%
CCN(c1ccc(NC(=O)CSc2ccc3c(c2)OCCO3)cc1)C(C)C | 1.4%

# Quoted from the listing:
# VDR inh with COCCN(C(=O)C1CC1)c1nnc(-c2ccc(C)cc2)s1 reads -1.9%
# VDR inh with Cc1ccc(C(C(=O)NC2CCCCC2)N(CC2CCCO2)C(=O)CNC(=O)c2cccs2)cc1 (stereo not drawn) reads 6.0%

# New compounds follow
SMILES | VDR inh
COc1ccc(Cc2noc(CN(C)Cc3ccc(-n4cccn4)cc3)n2)cc1OC | 5.7%
CCOC(=O)c1cc(-c2ccc(OC)c(S(=O)(=O)Nc3ccc(OC)cc3OC)c2)on1 | 1.4%
COc1ccc(C2/C=C\CN(C(=O)Oc3ccc(C(F)(F)F)cc3)CC(=O)N2Cc2ccc(F)cc2)cc1 (stereo not drawn) | -19.2%&-7.1%
CCOC(=O)N1CCN(Cc2nc3cc(NC(=O)CC)ccc3n2C(C)C)CC1 | 18.7%
COc1ncc2ncc(=O)n(CCC#N)c2n1 | 1.6%
CCCCCCCCCCCCSCCOCCO | -2.2%
CCOc1cc(C(=O)CSc2nnc(CNc3ccc(Cl)cc3)o2)ccc1NC(=O)CC | 13.5%
CCc1cc2c(=O)[nH]c(CC(N)=O)nc2s1 | 9.3%

# Filtered by structure, the entries above with a Cl atom (7)
SMILES | VDR inh
O=C(NCCc1ccccc1Cl)C1CCC(=O)N(CC2CCCCC2)C1 (stereo not drawn) | -17.6%
CCOC(=O)C1CCCN(C(=O)c2ccc(Cl)c(S(=O)(=O)N3CCCCCC3)c2)C1 (stereo not drawn) | 9.9%
Cc1cc(C)c(S(=O)(=O)c2ccc(Cl)cc2)c(=O)[nH]1 | -5.9%
O=C(NC1CCCCCC1)c1cccnc1Sc1ccc(Cl)cc1 | -5.6%
Cc1ccc(C)c(NC(=O)CN(C)C(=O)c2ccccc2OCc2ccccc2Cl)c1 | 2.1%
Cc1nn(C(=O)CCCn2cc([N+](=O)[O-])cn2)c(C)c1Cl | -7.9%
CCOc1cc(C(=O)CSc2nnc(CNc3ccc(Cl)cc3)o2)ccc1NC(=O)CC | 13.5%

# More structures:
SMILES | VDR inh
CC1(C)CC(=O)C(C(O)c2cccc([N+](=O)[O-])c2)C(C)(C)N1 (stereo not drawn) | -4.2%
O=C(CN(C(=O)CCC(=O)Nc1ccccn1)c1ccc(F)cc1)NCCc1ccccc1 | 11.7%
CCOC(=O)c1cnc2cc(C(F)(F)F)ccc2c1N1CCN(c2cccc(Cl)c2)CC1 | 0.7%
CCOc1cc(/C=N/NC(=O)C(N)=O)cc(Br)c1O | -12.1%
Cc1ccccc1N(C(=O)c1ccco1)C(C(=O)NC1CCCC1)c1cccnc1 (stereo not drawn) | -0.2%
Cn1c(=O)c2c(-c3ccccc3)n3c4ccccc4nc(-c4ccccc4)c3c2n(C)c1=O | -17.5%
O=C(OCCN1CCCC1=O)c1cc(F)c(F)c(F)c1F | -2.5%
CCC(Sc1nc2ccccc2o1)C(=O)O (stereo not drawn) | -17.0%
CCOc1ccc(NC(=O)COc2ccccc2C(=O)NCc2ccccc2)cc1 | 1.5%
O=C(COCc1cc(-c2ccc3c(c2)OCO3)on1)N1CCN(c2ccccc2)CC1 | 4.2%&1.0%
O=C(CCN1C(=O)/C(=C/c2cccs2)SC1=S)Nc1cccc(C(=O)O)c1 | 13.6%
COc1ccc(-c2csc(-c3cc4ccccc4oc3=N)n2)cc1 | -8.1%
Cc1ccc(S(=O)(=O)N(C)C)cc1NC(=O)CN1C(=O)NC2(CCCc3ccccc32)C1=O (stereo not drawn) | 4.0%
CC1CCc2c(sc(NC(=O)C3c4ccccc4Oc4ccccc43)c2C(=O)OC(C)C)C1 (stereo not drawn) | -10.7%
Cc1ccc(C)c(NC(=S)N(CCN(C)C)C(C)c2ccccn2)c1 (stereo not drawn) | -1.7%
COCCn1c(C)cc(C(=O)CSc2ncn[nH]2)c1C | -16.5%
CCCNC(=O)C(=O)Nc1ccc2c(c1)N(S(=O)(=O)c1cccs1)CCC2 | -1.4%
COCCn1c(=O)[nH]c2cc(C(=O)NCc3ccccc3Cl)ccc2c1=O | 6.6%
Cc1ccc(-n2cccc2C(=S)N=P(N(C)C)(N(C)C)N(C)C)cc1 | ?
CC(C)(C)Sc1ccc(N)nc1 | -10.6%
CCOC(=O)N1CCN(c2cc(C)c(C(C)=O)cc2F)CC1 | -5.1%
Cc1cccc(Nc2nnc(-c3ccc(C)c(S(=O)(=O)NCC4CCCO4)c3)c3ccccc23)c1 (stereo not drawn) | -17.9%
COc1ccccc1C(=O)Nc1ccc(Oc2nnc(-c3ccc(C)cc3)c3ccccc23)cc1 | 2.9%
Cc1ccc(OCC(=O)N/N=C\c2cn(Cc3ccccc3)c3ccccc23)cc1C | -3.2%
O=C(NNC(=O)C(Cl)Cl)c1cnn(-c2ccccc2)c1C(F)(F)F | -12.6%
COC(=O)Oc1ccc(/C=N/NC(=O)CSCc2ccccc2Br)cc1OC | -0.8%
O=c1c(-c2cccc(F)c2)nc2cncnc2n1Cc1ccccc1 | -0.6%
C=COC(=O)NC1CCc2cc(OC)c(OC)c(OC)c2-c2ccc(SC)c(=O)cc21 (stereo not drawn) | -6.7%
CCC(C(=O)N/N=C/c1cccnc1)c1ccccc1 (stereo not drawn) | 0.2%
COc1ccc(S(=O)(=O)/N=C2/NC(=O)/C(=C/c3ccco3)S2)cc1 | 1.0%
COc1cc2c(C(=O)NCCCN3CCN(c4cccc(Cl)c4)CC3)cn(C)c(=O)c2cc1OC | 9.4%
COc1cccc(NC(=O)CN(C)C(=O)c2ccc3c(c2)S(=O)(=O)N=C2CCCCCN23)c1 | -21.8%
Cc1ccc(SCC(=O)NCCCc2ccccc2)cc1 | 21.1%
CCOc1ccc(S(=O)(=O)Nc2ccc(C(=O)NCC3(N4CCCCC4)CCCCC3)cc2)cc1 | 9.2%
CCc1nnc(NC(=O)CN2C(=O)CCC2=O)s1 | 7.4%
O=C1/C(=C/Nc2ccc3c(c2)OCO3)CCc2ccccc21 | -5.8%
O=C1CC(Cc2ccc(Br)cc2)C(=O)N1c1ccccc1 (stereo not drawn) | -14.4%
COc1cccc(CNC(=O)c2cc(S(=O)(=O)N3CCCCCC3)cn2C)c1 | 8.1%
CCC/C=C(\CCC)C(NC(=O)c1ccc(C(=O)OC)cc1)c1ccc(C(=O)OC)cc1 (stereo not drawn) | -4.1%
CCSc1ccccc1C(=O)N1CCN(Cc2ccc3c(c2)OCO3)CC1 | -17.7%
CCCN1CCN(S(=O)(=O)c2ccc3c(c2)CCC(=O)N3)CC1 | 17.1%
CNC(=O)c1cc(S(=O)(=O)Nc2ccc3c(c2)OCO3)ccc1C | 8.5%
O=C(NC1CCCCCC1)c1ccc2nc3cc(Cl)ccc3c(=O)n2c1 | -0.1%
COc1ccc(-c2cn3cc([N+](=O)[O-])ccc3n2)cc1OC | -2.8%
COc1ccc(CCNC(=O)CSc2cn(Cc3cccc(C)c3)c3ccccc23)cc1OC | -4.8%
COc1ccccc1C(=O)OCC(=O)NC(=O)NCc1ccccc1 | 9.4%
CN(C)c1ccc(Nc2ccc([N+](=O)[O-])cn2)cc1 | 2.5%
COc1ccc2c(c1)C(NC(=O)C(F)(F)F)CC2=O (stereo not drawn) | -4.7%
Cc1ccc(C(=O)OCC(=O)N2CCC(c3ccccc3)=N2)cc1 | 10.4%
CN(C)/C=C/C(=O)c1cc(F)cc(C(F)(F)F)c1 | 6.0%
Cc1nn(CC(=O)NC2CC2)c(C)c1S(=O)(=O)NC(C)(C)C | 2.3%
Cc1cc(NC(=O)c2ccco2)ccc1NC(=O)c1ccco1 | -12.0%
COc1ccc(-c2nc(=S)c3c(n2CCN2CCOCC2)CC(C)(C)OC3)cc1 | 1.8%
O=C(N/N=C/c1cn(-c2cccs2)nc1-c1ccccc1)c1ccccc1O | -8.1%
CN(c1ccccc1)S(=O)(=O)c1ccc(Cl)c(C(=O)Nc2ccc(-c3nc4ccccc4[nH]3)cc2)c1 | -3.7%
CC(Oc1ccc2ccccc2c1)C(=O)N/N=C/c1cccnc1 (stereo not drawn) | 11.0%

# Going on with the list:
SMILES | VDR inh
CC(C)C(=O)Nc1nnc(COc2ccc(Cl)cc2)s1 | -1.9%
O=C(NCC1CCCO1)C1CCC(CNS(=O)(=O)c2ccccc2)CC1 (stereo not drawn) | 10.7%
COc1cccc(Cn2c(C)c(CNC3CCCCC3)c(C(=O)O)c2C)c1 | 19.5%
O=C(O)CCC(=O)NCc1c(Cl)cccc1Sc1ccc(Cl)cc1 | 3.9%
Cc1cc(N)n2ncc(-c3ccc(Cl)cc3)c2n1 | -7.7%
O=[N+]([O-])c1ccccc1N/N=C1\CCc2ccccc21 | ?
C=CCn1c(CNC(=O)c2ccco2)nnc1SCC(=O)Nc1cccc(F)c1 | -11.2%
Cc1ccc(C)c(OCC(=O)Nc2c[nH]c(=O)[nH]c2=O)c1 | -8.2%
Cc1csc(NC(=O)CCC(=O)N(CC(=O)NC2CCCC2)Cc2ccccc2)n1 | -13.7%
Nc1cc[n+](CC(=O)Nc2ccccc2)cc1 | 22.6%
Cc1cc(O)c(C(C)C)cc1N=Cc1ccc([N+](=O)[O-])cc1 | 50.1µM*
Cc1nc(N)nc(OCC(F)(F)C(F)F)c1Br | 25.3%
CNC(=S)NNC(=O)Cc1ccccc1 | 16.5%
CCCS(=O)(=O)c1c(S(=O)(=O)CCC)c2cnccn2c1C(=O)c1ccc(F)cc1 | -16.1%
Cc1cc(C(F)(F)F)cc(NNC(=O)NC(=O)c2ccccc2Cl)n1 | -7.4%
CCN(CC)CCNC(=O)CCN1N=C(c2ccccc2)CCC1=O | 12.5%
Cc1cc(C)cc(NC(=O)N2CCCN(c3ncccc3[N+](=O)[O-])CC2)c1 | -6.4%
O=C(Nc1ccccc1)c1ccccc1Oc1ccc(C(F)(F)F)cc1[N+](=O)[O-] | -19.3%
CCOC(=O)c1ccc(NC(=O)CN2CCN(CCN=CC3=C(O)CC(C)(C)CC3=O)CC2)cc1 | 3.4%
CCOc1ccc(C(=O)c2ccccc2C(=O)O)cc1OCC | -7.1%
C=CCOn1c(=O)c(-c2ccc(F)cc2)[n+]([O-])c2ccccc21 | 7.5%
O=C(CSc1c[nH]c2ccccc12)NCc1ccc2c(c1)OCO2 | 5.3%
COc1cc2c(c(OC)c1OC)-c1ccc(OC)c(=O)cc1[C@@H](N(C)CC#CCO)CC2 | 1.9%
Cc1cc2c(cc1S(=O)(=O)N(C)c1ccccc1)n(C)c(=O)n2C | -15.6%
O=C(CCCC(=O)N/N=C\c1ccccn1)N/N=C\c1ccccn1 | -9.6%

# Source: PubChem
